# PKD1 kinase inh: blocks activity of human protein kinase D1; Q15139; PKD1 kinase fluorescence polarization assay; inhibition, %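 (about 10 µM by stock and volumes)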; hit rate 0.056% among 200,000;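 active means inhibition of 50% or more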;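 further: controls were vehicle for no effect and a reference inhibitor for full effect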
# RGS16-Gao: regulators of human RGS16-Galphao interaction | O15492+P09471 | bead-based flow cytometry RGS16-Galphao binding, fluorescence; actives lie on both sides | binding response (% of control), % at 10 µM | hit rate 0.38% among 220,000 | AID 1441;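 active means below 25% or above 175%, edge rows of some plates excepted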;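 further: Galphao activated by GDP with aluminum fluoride before binding; 100% = wells without compound and 0% = beads without RGS; some results beyond the cut were filed as inactive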
# Target sequence (O15492 whole entry, looked up): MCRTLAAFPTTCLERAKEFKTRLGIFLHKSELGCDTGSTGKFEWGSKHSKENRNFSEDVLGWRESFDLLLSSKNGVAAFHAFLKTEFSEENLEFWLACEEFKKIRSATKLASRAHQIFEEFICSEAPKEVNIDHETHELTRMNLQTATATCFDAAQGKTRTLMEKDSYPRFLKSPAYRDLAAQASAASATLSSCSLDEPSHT
# Target sequence (P09471 whole entry, looked up): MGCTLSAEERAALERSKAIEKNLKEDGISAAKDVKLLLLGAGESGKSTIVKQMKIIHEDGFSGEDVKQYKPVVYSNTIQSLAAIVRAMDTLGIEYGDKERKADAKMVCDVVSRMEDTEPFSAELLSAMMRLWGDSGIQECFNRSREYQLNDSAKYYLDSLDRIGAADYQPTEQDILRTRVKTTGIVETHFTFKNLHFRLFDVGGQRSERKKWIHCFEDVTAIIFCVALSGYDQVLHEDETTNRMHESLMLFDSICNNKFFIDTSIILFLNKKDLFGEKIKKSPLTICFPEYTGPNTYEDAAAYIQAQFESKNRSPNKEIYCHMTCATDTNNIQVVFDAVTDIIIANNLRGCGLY
# GALR2 agonist: activates the human galanin receptor 2. activation, %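 (tested at 5 µM)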. GALR2-expressing cells, agonist activation read-out. hit rate 0.48% among 140,000;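 active means above mean plus 3 SD of all compounds, about 5% in these data, not always enough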;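 further: 0% = vehicle buffer wells and 100% = reference agonist at full effect; tested in CHO reporter cells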
# Target sequence (O43603 whole entry, looked up): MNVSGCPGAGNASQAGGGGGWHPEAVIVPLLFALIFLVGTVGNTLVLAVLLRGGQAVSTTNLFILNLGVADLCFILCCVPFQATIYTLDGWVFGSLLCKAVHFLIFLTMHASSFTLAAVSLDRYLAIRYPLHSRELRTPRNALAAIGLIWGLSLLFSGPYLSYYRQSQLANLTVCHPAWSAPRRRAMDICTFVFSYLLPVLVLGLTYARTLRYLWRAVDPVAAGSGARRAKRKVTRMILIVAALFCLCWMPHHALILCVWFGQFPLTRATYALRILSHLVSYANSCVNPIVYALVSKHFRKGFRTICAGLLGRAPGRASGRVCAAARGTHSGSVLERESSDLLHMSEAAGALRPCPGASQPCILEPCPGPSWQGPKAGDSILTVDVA
# INS promoter inh: TRM-6 insulin promoter activity inhibition; TRM-6 cells (human fetal islet line), insulin promoter-eGFP reporter, imaging; reporter expression induced with tamoxifen; inhibition, % at 2 µM; hit rate 0.9% among 130,000;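 active means inhibition above the mean plus 3 SD, with well images judged a real hit on visual review, cut at about 60% in these data, passing the limit was not always enough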
# HSV augment: HSV replication enhancement; HSV replication augmentation in cells, fold increase; maximum fold increase; hit rate 0.005% among 220,000;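 active means peak rise of 1.5-fold or more in the series; tested in PC3 cells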;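 further: first round at 10 µM; read as green reporter fluorescence; hits show the peak of a series up to 25 µM; 1 = signal of infected wells without compound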
# INS promoter inh cell count: second read-out of INS promoter inh, no call of its own (marks repeat the call); normalized cell count, %; measured here: cell count, toxicity; reference of the scale not given here;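 cells exposed to compound for 48 h; stained nuclei by imaging scaled within each plate; lower means fewer cells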
# HSV augment primary fold: second read-out of HSV augment, no call of its own (marks repeat the call); fold increase; compound at 10 µM; measured here: primary screen fold increase 10 uM; tested in PC3 cells;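 GFP signal in the first replicate; 1 = infected wells without compound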
# Numbers without * were called inactive; i = inactive; . = no result given; & = joins results of further samples. Random draw from the library, and some 1.1% of all compounds hit somewhere here.
SMILES,PKD1 kinase inh,RGS16-Gao,GALR2 agonist,INS promoter inh,INS promoter inh cell count,HSV augment,HSV augment primary fold
CC1CCC(C(C)C)C(OC(=O)Cn2c(-c3ccccc3)[n+](C)c3ccccc32)C1 (centres undefined),10&-3,105&105,-1.4&-0.6,-43&-6,105&95,i,0.61&0.88
COC(=O)C1CC(c2c(OC)cc(OC)cc2OC)=NO1 (centres undefined),-4,72,-1.9,56,122,i,1.1
Cc1cc(C)c(C(=O)OCC(=O)NCc2cccs2)c(C)c1,2,102,.,-33,129,i,0.72
CC(=O)Nc1ccc(C(F)(F)F)cc1Cl,.,100,.,.,.,i,1.1
C/C(=N/NC(=O)c1sc(NS(=O)(=O)c2ccc(C)cc2)nc1C)c1sc(N)nc1C,3,101,.,.,.,i,0.96
O=C(c1ccccc1)c1ccc2c(c1)OCCOCCOCCO2,.,103,.,.,.,i,1
Cc1ccc(OCC(=O)N/N=C\c2c(C)n(C)c3ccccc23)c([N+](=O)[O-])c1,1,106,-0.9,.,.,i,0.74
CCOc1ccc(CN(C)CC(=O)Nc2cccc(S(=O)(=O)N(C)c3ccccc3)c2)cc1,-5,99,.,.,.,i,0.99
CC(C)(C)c1cc(CNC2CS(=O)(=O)C[C@@H]2O)cc(C(C)(C)C)c1O (some centres undefined),-5,104,-0.5,.,.,i,1
COC(=O)c1ccc2c(c1)NC(=O)C(N1CCCCC1)S2 (centres undefined),-9,86,-1.2,.,.,i,1.1
CCOC(=O)c1cc(-c2csc(Nc3ccccc3Cl)n2)on1,.,102,.,.,.,i,1
CCOc1ccccc1/C=N/NC(=O)c1cccc(S(=O)(=O)N2CCOCC2)c1,0,92,.,.,.,i,0.97
CC1CCc2cc(F)ccc2N1C(=O)CN1C(=O)c2ccccc2C1=O (centres undefined),2,102,0.6,14,104,i,0.83
Cc1cc(C)c2c(=O)n(-c3ccccc3)[nH]c2n1,-5,113,-0.5,0,101,i,0.84
Cn1nc(C(=O)Nc2ccc(S(=O)(=O)NCc3ccco3)cc2)c2ccccc2c1=O,.,100,.,.,.,i,0.97
O=C(Nc1cc(C(F)(F)F)ccc1N1CCOCC1)c1cccs1,6,103,-1.6,-4,165,i,0.98
O=C(CSc1ccc(Cl)cc1)NC1CCCC1,-2,111,-0.8,.,.,i,0.78
CCOC(=O)c1cc2ccc(OC)cc2oc1=O,15,100,-0.8,-5,81,i,1
Cc1ccc(C23CC4CC(CC(NC(=O)NC(C)(C)CO)(C4)C2)C3)cc1,-3,99,-2.4,.,.,i,0.75
COC(=O)/C(=C\Nc1ccc(Cl)cc1Cl)NC(=O)c1ccccc1,-6,96,-1.0,.,.,i,0.92
CCCC(c1nnnn1C1CCCCC1)N1CCN(c2ncccn2)CC1 (centres undefined),3,102,-1.1,.,.,i,0.98
c1ccc(CN2CCN(c3nc(NCc4ccco4)c4ccccc4n3)CC2)cc1,3,86,-0.4,-27,86,i,0.64
O=C(O)Cc1csc(-c2cccc(Oc3ccccc3)c2)n1,.,102&100,.,.,.,i,0.89&1
CCN(CCO)Cc1csc2ccccc12,3,149,-0.6,-3,60,i,1.2
O=C(O)C1CC(O)CN1C(=S)Nc1ccccc1 (centres undefined),-1,111,.,-11,95,i,0.93
COc1ccc(CN=Nc2cc(C)nc(NS(=O)(=O)c3ccccc3Cl)n2)cc1,-10,101,.,61,148,i,0.98
CC1(C)CC(=O)C2=C(C1)OC(c1cccs1)C(C#N)=C2N (centres undefined),-3,106,-0.1,-3,120,i,1
N#CCSc1nnc(-c2ccccc2O)n1CCc1ccccc1,-9,104,-1.4,.,.,i,0.96
Cc1cc(C)c(C#N)c(SCC(=O)c2ccccc2)n1,-1,106,.,.,.,i,0.95
CCOC(=O)C1(CCc2ccccc2)CCN(Cc2cnc(N(C)C)s2)CC1,-2,99,.,.,.,i,0.99
COc1cccc(N2CCN(C(=O)c3cccnc3)CC2)c1,5,88,-1.4,.,.,i,1
Clc1ccc(Cl)c2sc(N3CCCC3)nc12,-5,104,-1.0,.,.,i,0.79
Cc1ccc2cc(CN(CC3CCCO3)C(=O)NC3CCCCC3)c(=O)[nH]c2c1C (centres undefined),3,103,-1.1,.,.,i,0.83
c1ccc2c(c1)C(=NC1CCCCC1)NC2=NC1CCCCC1,-5,96,0.8,26,109,i,0.9
Cc1cccc(C(=O)NCCc2csc(C)n2)c1,-5,109,-1.7,.,.,i,0.8
CCC(=O)NC(c1cccs1)c1cc([N+](=O)[O-])c2cccnc2c1O (centres undefined),6,98,-0.2,.,.,i,0.83
CCCn1c(C)cc(/C=C(\C#N)C(=O)OCC(=O)NC(=O)NCC)c1C,-1,102,1.6,-6,120,i,1.1
COc1ccc(OC)c(C2=C/C(=C/c3ccccn3)C(=O)O2)c1,-9,104,.,17,81,i,1.2
O=C(CN(c1ccccn1)S(=O)(=O)c1ccc(F)cc1)Nc1ccc(F)cc1F,-2,97,.,-54,106,.,.
CC(=O)c1ccc(O)c(CC=C(C)C)c1,.,105,.,.,.,i,1
CCOc1ccccc1N1CC(C(=O)N2CCc3ccccc3C2)CC1=O (centres undefined),-8,98,-1.6,-11,118,i,0.82
O=C(C1CCCN(S(=O)(=O)c2ccccc2)C1)N1CCCc2ccccc21 (centres undefined),-12,104,-1.6,-32,63,i,0.65
O=C1c2[nH]nc(-c3ccccc3O)c2C(c2ccccc2)N1Cc1ccco1 (centres undefined),-10,101,-3.4,.,.,i,0.92
Cc1nn(CC(=O)NC(C)C)c(C)c1[N+](=O)[O-],1,101,.,.,.,i,0.99
O=C(c1ccc(Cl)cc1)[C@@H]1[C@@H]2C(=O)N(c3cccc4ccccc34)C(=O)[C@@H]2C2c3ccccc3C=NN21 (some centres undefined),5,137,-1.1,15,51,i,1
COc1ccc(-c2cc3nc4c(c(N5CCC6(CC5)OCCO6)n3n2)CCC4)cc1,-4,99,.,.,.,i,0.89
COc1ccc(CC(=O)Nc2ccc(C(=O)NCC(C)C)cc2)cc1,1,98,-2.0,3,143,i,0.91
COc1ccc2c(c1)c(=O)cc(-c1ccccc1)n2C,-2,25,-1.9,31,96,i,0.98
Cc1nn(C)c(C(=O)N2CCN(C(=O)c3ccco3)CC2)c1[N+](=O)[O-],-6,97,-1.5,9,128,i,0.98
Cc1ccc(C(=O)NN2C(=O)C3C4C=CC([C@@H]3C2=O)C42CC2)cc1 (some centres undefined),.,95,.,.,.,i,1
# Continued:
SMILES,PKD1 kinase inh,RGS16-Gao,GALR2 agonist,INS promoter inh,INS promoter inh cell count,HSV augment,HSV augment primary fold
Cc1nc2cc(C(=O)OCC(=O)Nc3cccc(Cl)c3)ccc2n1-c1ccccc1,-5,99,-0.7,.,.,i,0.86
CC(C)(C)c1nnc2sc(SCC(=O)N3CCCc4ccccc43)nn2c1=O,-4,103,-2.5,23,71,i,0.87
COc1cccc2cc3c(=O)oc4ccccc4c3nc12,-1,93,-0.3,.,.,i,0.91
Cc1ccc2c(c1)N(CC(=O)N1CCN(c3nc4ccccc4s3)CC1)C(=O)C(C)O2 (centres undefined),-7,105,-0.3,.,.,i,0.88
COc1ccc(C2CC(=O)c3sc(NC(C)=O)nc3C2)cc1 (centres undefined),-4,101,-3.3,0,79,i,0.91
CCn1c(SCC(=O)O)nnc1-c1ccc2[nH]c(C)c(C)c2c1,-2,86,-2.5,-14,135,i,0.96
Cn1cc(CN2CCCC(CNC(=O)c3ccc4c(c3)OCO4)C2)c2ccccc21 (centres undefined),2,109,.,29,116,i,0.98
COc1cc2nc(C3CCC3)n(NC(=O)c3ccco3)c(=O)c2cc1OC,2,95,.,-142,91,i,0.98
CCOc1ccc(NC(=O)CN2CCN(CC(=O)Nc3ccc4c(c3)OCO4)CC2)cc1,-4,101,-1.1,17,171,i,1
CC(=O)c1ccc(NC(=O)CSc2ccsc2[N+](=O)[O-])cc1,-5,104,.,-45,85,i,0.96
CCc1ccc(CNCc2ccc(F)cc2)cc1,-4,109,-0.6,12,113,i,0.85
CCc1nc2cc(Cl)c(Cl)cc2[nH]1,-7,111,0.3,.,.,i,1.1
CC(C)NC(=O)c1ccc2c(=O)n(C3CCCC3)c(=S)[nH]c2c1,-8,98,-1.2,.,.,i,0.83
CC(=O)c1cc2c(cc1NC(=O)CN1CCCCCC1)OCO2,1,151,-2.3,54,32,i,0.97
CCCOC(=O)Nc1ccc(C(N)=O)cc1,-23,108,-0.8,.,.,i,0.91
COc1cccc(NC(=O)N2CCN(S(C)(=O)=O)CC2)c1,4,104,.,.,.,i,1
O=c1c2ccccc2nc2n1CCS2(=O)=O,.,101,.,.,.,i,1
O=C(NNC(=O)c1ccncc1)Nc1cccc([N+](=O)[O-])c1,-5,102,.,26,85,i,0.98
CCCCCCCc1n[nH]c(=S)n1Cc1ccccc1,.,105,.,.,.,i,1.1
CCOC(=O)c1[nH]c2ccc(Cl)cc2c1NC(=O)c1nonc1C,-6,98,-3.3,-42,87,i,0.94

# Filtered by structure: those above containing fluorine
SMILES,PKD1 kinase inh,RGS16-Gao,GALR2 agonist,INS promoter inh,INS promoter inh cell count,HSV augment,HSV augment primary fold
CC(=O)Nc1ccc(C(F)(F)F)cc1Cl,.,100,.,.,.,i,1.1
CC1CCc2cc(F)ccc2N1C(=O)CN1C(=O)c2ccccc2C1=O (centres undefined),2,102,0.6,14,104,i,0.83
O=C(Nc1cc(C(F)(F)F)ccc1N1CCOCC1)c1cccs1,6,103,-1.6,-4,165,i,0.98
O=C(CN(c1ccccn1)S(=O)(=O)c1ccc(F)cc1)Nc1ccc(F)cc1F,-2,97,.,-54,106,.,.
CCc1ccc(CNCc2ccc(F)cc2)cc1,-4,109,-0.6,12,113,i,0.85

# The list continues.
SMILES,PKD1 kinase inh,RGS16-Gao,GALR2 agonist,INS promoter inh,INS promoter inh cell count,HSV augment,HSV augment primary fold
COc1ccc(C(=O)NC(=S)Nc2nc(C)c(C(=O)N(C)C)s2)cc1,7,139,-0.3,20,126,i,0.98
NC(=O)COC(=O)c1c2c(nc3ccccc13)CCCC2,4,98,.,.,.,i,0.89
COC(=O)[C@@H]1C[C@H]2CC[C@H](O)C[C@H]2N1Cc1ccccc1OS(=O)(=O)c1ccc(C)cc1,.,104,.,.,.,i,0.99
Nc1c(C(=O)NCc2ccccc2)c2nc3ccccc3nc2n1-c1ccc2c(c1)OCO2,-2,103,1.7,-16,144,i,0.77
Cc1ccc2[nH]c3c(c2c1)CN(C(=O)CN1CCCCC1)CC3,.,98,.,.,.,i,1
COc1ccc(COCC(O)CN2CCOCC2)cc1OC (centres undefined),-1,109,-1.5,19,94,i,0.98
Cc1ccc(-c2nnn(CC(=O)Nc3ccc(S(=O)(=O)N4CCC(C)CC4)cc3)n2)cc1,6,106,0.2,47,124,i,0.73
CCOC(=O)c1c(NC(=O)C(=O)N/N=C/c2ccc(OCC)cc2)sc2c1CCCCC2,-2,100,-0.3,24,148,i,0.93
Cc1ccc(C(=O)NNC(=O)Cc2csc(-c3csc(C)n3)n2)cc1,.,104,.,.,.,i,0.97
S=c1[nH]nc(-c2ccc3ccccc3n2)n1-c1ccccc1,9,97,-0.6,.,.,i,0.98
Cc1ccccc1NC(=O)c1ccc([N+](=O)[O-])o1,0,108,.,.,.,i,0.76
COc1ccc(C2C(C#N)=C(N)Oc3n[nH]c(C)c32)cc1CN1CCN(c2ccc(F)cc2)CC1 (centres undefined),6,89,-0.6,.,.,i,1.1
O=C1NC(=S)N/C1=C\c1ccc(Oc2ccc(C(F)(F)F)cc2[N+](=O)[O-])c(Cl)c1,.,91,.,.,.,i,1
CO[C@H]1C=CO[C@@]2(C)Oc3c(C)c(O)c4c(O)c(c(C=NN5CCN(C6CCCC6)CC5)c(O)c4c3C2=O)NC(=O)C(C)=CC=C[C@H](C)[C@H](O)[C@@H](C)[C@@H](O)[C@@H](C)[C@H](OC(C)=O)[C@@H]1C,.,100,.,.,.,i,0.75
COc1cccc(-c2nnc(N(C)C(=O)C3CCOC3)s2)c1 (centres undefined),-6,92,-1.9,-7,109,i,0.88
Cc1ccc([N+](=O)[O-])cc1NC(=O)/C=C/C(=O)O,.,96,.,.,.,i,1.2
O=C(C=C1CCN(c2ncc(C(F)(F)F)cc2Cl)CC1)NNC(=O)Nc1ccccc1,-8,105,-1.6,0,86,i,0.79
O=C(CSCCO)Nc1cccc(C(F)(F)F)c1,-4,103,-2.8,50,115,i,0.93
O=C1CN(S(=O)(=O)c2ccc(Cl)cc2C(F)(F)F)CCN1,-1,98,.,.,.,i,0.94
CSc1nc2[nH]c3c(c2c2nnnn12)CCCC3,11,97,-0.5,-6,110,.,.
Cc1noc(C)c1S(=O)(=O)N(CC(=O)O)c1ccc2c(c1)OCO2,-14,101,-0.5,.,.,i,0.91
